Source: PubChem
2A Renilla = lowers the Renilla signal of an FMDV 2A StopGo reporter. HEK cells with a luciferase reporter of 2A StopGo recoding. Potency, µM (titrated, usually from 57.5 µM), inactives show top-dose signal change, negative = less light. 0.32% of 120,000 active; active means well fitted falling curve with a large enough effect; inconclusive means small, poorly fitted or top-dose-only effect; inactive means no such curve, though single readings can be large or run the other way; also: nearly all actives have a fitted effect of over 55% in size; overnight with compound
StopGo FLuc = FMDV 2A StopGo reporter, firefly signal; 0.23% of 120,000 active; Potency, µM (titrated, usually from 57.5 µM), for the others: at the highest dose signal change, negative = less light; HEK cells with a luciferase reporter of 2A StopGo recoding; active = well fitted falling curve with a large enough effect; inconclusive = small, poorly fitted or top-dose-only effect; inactive = no such curve, though single readings can be large or run the other way; also: nearly all actives have a fitted effect of over 60% in size; overnight with compound
* hit, by the source's call; ? = inconclusive; & = joins results of further samples; [ ] = remark or other dose. % is scaled to controls: 0 for no effect and ±100 for the full control effect; potency is read from the fitted curve at half-maximal effect.

SMILES	2A Renilla	StopGo FLuc
CCc1ccc(-n2c(=O)c3c4c(sc3n(Cc3ccccc3C#N)c2=O)CCCC4)cc1	-12%	-9%
CC(=O)Nc1cccc(NC(=O)c2nn(Cc3ccccc3)c(=O)c3ccccc23)c1	67%[activator]	48%[activator]
CCc1ccc(CNC(=O)c2nccnc2N)s1	5%	12%
COc1ccc(C2CC(=O)N(CC(=O)Nc3cc(C)ccc3C)c3ccccc3S2)cc1 (stereo not given)	-9%	-14%
S=C(NN=C1CCCCC1)NC1CCCCC1	42%[activator]	0%
C=CCN1C(=O)COc2ccc(NC(=O)c3cc(=O)c4ccc(C)c(C)c4o3)cc21	-14%	-16%
COC(=O)c1cc2cc3ccccc3nc2s1	13%	186%[activator]
Cc1cccc(C(=O)NC(CC(=O)O)c2ccc(C(C)(C)C)cc2)c1 (stereo not given)	-10%[1.06 µM]	-4%
CCCC1=Nc2cc(C(=O)NCC(C)c3ccccc3)ccc2Sc2ccccc21 (stereo not given)	18%	-11%
O=C(O)CCCc1nc2ccccc2c2nc(=O)c(-c3ccccc3)nn12	6%	86%[activator]
Cc1sc(-c2nc(-c3ccccc3)no2)cc1S(=O)(=O)N1CCCCCC1	-1%	27%
Cc1ccccc1NC(=O)c1ccc2c(Cl)c3c(nc2c1)CCC3	19%	87%[activator]
Cc1ccccc1Cn1c(Oc2ccccc2F)nc2c1c(=O)n(C)c(=O)n2C	-5%&9%	-5%&8%
O=C(CCOc1ccccc1)Nc1cnc2ccccc2c1	10%	106%[activator]
Cn1c(=O)c2c(ncn2CCCC(=O)Nc2cccc(N3CCCC3=O)c2)n(C)c1=O	10%	16%
CN1C(CCl)Nc2cc(Cl)c(S(N)(=O)=O)cc2S1(=O)=O (stereo not given)	-2%	-15%
O=C(c1ccc(F)cc1)c1ccc(OCC(=O)N2CCc3ccccc32)cc1	-7%	-3%
COc1ccc(OC)c(S(=O)(=O)NCCc2sc(C)nc2C)c1	69%[activator]	2%
CC(C)Cc1nc(NCCO)c(C#N)c2c1CCCC2	?	?
CN(CC(=O)Nc1c(Cl)cccc1Cl)CC(=O)N1CCC(Cc2ccccc2)CC1	-23%	-19%
Cn1c(=O)c2c(ncn2Cc2cccc(OCC(F)(F)F)c2)n(C)c1=O	4.5µM*	7.1µM*
CN(C)S(=O)(=O)c1ccc(C(=O)OCc2csc(-c3ccccc3)n2)cc1	0%	17%
CCC(=O)OC1CCC2C3CCC4CC(=O)CCC4(C)C3CCC12C (stereo not given)	-3%	5%
CCN(Cc1cccs1)Cc1cc(=O)oc2cc(C)c(C)cc12	31%[activator]	0%
Cc1cc(S(=O)(=O)NCC2CN(Cc3ccccc3)CCO2)ccc1Br (stereo not given)	33%[activator]	1%
Cc1cc(C)c(NC(=O)CN(C)Cc2ncc(-c3ccc(F)cc3)o2)c(C)c1	-18%	2%
CC(=O)N1CCCC1c1nc2ccccc2n1Cc1ccccc1Cl (stereo not given)	9%	38%
Cc1ccc(C)c(S(=O)(=O)N2CCN(C(=O)c3cc4ccc(F)cc4nc3C)CC2)c1	-9%	-15%
CC(C)Cn1cnc2c1c(=O)n(CC(=O)Nc1ccc3c(c1)OCCO3)c(=O)n2Cc1ccccc1	11%	6%
Cc1cccc(-c2nc3cc(NC(=O)c4cccc([N+](=O)[O-])c4C)ccc3o2)c1	14%	37%[activator]

Some of the entries so far, with bars between the fields.
compound | 2A Renilla | StopGo FLuc
Cc1ccccc1NC(=O)c1ccc2c(Cl)c3c(nc2c1)CCC3 | 19% | 87%[activator]
Cc1ccccc1Cn1c(Oc2ccccc2F)nc2c1c(=O)n(C)c(=O)n2C | -5%&9% | -5%&8%
O=C(CCOc1ccccc1)Nc1cnc2ccccc2c1 | 10% | 106%[activator]
Cn1c(=O)c2c(ncn2CCCC(=O)Nc2cccc(N3CCCC3=O)c2)n(C)c1=O | 10% | 16%
CN1C(CCl)Nc2cc(Cl)c(S(N)(=O)=O)cc2S1(=O)=O (stereo not given) | -2% | -15%
O=C(c1ccc(F)cc1)c1ccc(OCC(=O)N2CCc3ccccc32)cc1 | -7% | -3%
COc1ccc(OC)c(S(=O)(=O)NCCc2sc(C)nc2C)c1 | 69%[activator] | 2%
CC(C)Cc1nc(NCCO)c(C#N)c2c1CCCC2 | ? | ?
CN(CC(=O)Nc1c(Cl)cccc1Cl)CC(=O)N1CCC(Cc2ccccc2)CC1 | -23% | -19%
Cn1c(=O)c2c(ncn2Cc2cccc(OCC(F)(F)F)c2)n(C)c1=O | 4.5µM* | 7.1µM*
CN(C)S(=O)(=O)c1ccc(C(=O)OCc2csc(-c3ccccc3)n2)cc1 | 0% | 17%
CCC(=O)OC1CCC2C3CCC4CC(=O)CCC4(C)C3CCC12C (stereo not given) | -3% | 5%
CCN(Cc1cccs1)Cc1cc(=O)oc2cc(C)c(C)cc12 | 31%[activator] | 0%
Cc1cc(S(=O)(=O)NCC2CN(Cc3ccccc3)CCO2)ccc1Br (stereo not given) | 33%[activator] | 1%
Cc1cc(C)c(NC(=O)CN(C)Cc2ncc(-c3ccc(F)cc3)o2)c(C)c1 | -18% | 2%
CC(=O)N1CCCC1c1nc2ccccc2n1Cc1ccccc1Cl (stereo not given) | 9% | 38%
Cc1ccc(C)c(S(=O)(=O)N2CCN(C(=O)c3cc4ccc(F)cc4nc3C)CC2)c1 | -9% | -15%
CC(C)Cn1cnc2c1c(=O)n(CC(=O)Nc1ccc3c(c1)OCCO3)c(=O)n2Cc1ccccc1 | 11% | 6%
Cc1cccc(-c2nc3cc(NC(=O)c4cccc([N+](=O)[O-])c4C)ccc3o2)c1 | 14% | 37%[activator]

Later entries.
SMILES	2A Renilla	StopGo FLuc
COC(=O)CCOc1ccc(S(=O)(=O)Nc2ccc(F)cc2F)cc1	-1%	-12%
CCOCCCNC(=O)/C=C/c1ccc(C)cc1	28%	152%[activator]
O=C(Nc1ccccc1Br)N1CCN2CCCCC2C1 (stereo not given)	-8%	8%
N#Cc1nc(-c2ccco2)oc1NCc1ccccc1	0%	116%[activator]
Cc1cc(C)c(NC(=O)Nc2ccc3snnc3c2)c(C)c1	-10%	?
CCN1CCN(c2nc3c(c(=O)n(C)c(=O)n3C)n2CC(=O)c2ccccc2)CC1	2%	17%
Cc1cc(SCC(=O)O)c(C)cc1Br	-3%	4%
CCCN(C(=O)c1noc2c1COc1ccc(C)cc1-2)c1ccc(Cl)c(Cl)c1	1%	-12%
CCOc1c(Cl)cc(Cl)cc1CNCCSc1nnnn1C	-1%	-9%
CC(C)Oc1ccc(CNC(=O)C2=Cc3ccccc3OC2)cc1	29%	57%[activator]
CCOc1cc(S(=O)(=O)NCCc2c(C)[nH]c3ccc(C)cc23)ccc1F	99%[activator]	-14%
CCN(Cc1ccccc1)C(=O)Cn1c(=O)cc(C)c2c(C)nn(-c3cccc(F)c3)c21	-8%	-21%
Cc1ccc(-c2nc(CS(=O)CC(=O)N(C)C3CCCCC3)cs2)cc1 (stereo not given)	33%[activator]	11%
CCN(C(=O)CSc1nc2ccsc2c(=O)n1C)c1ccccc1	44%[activator]	0%
CC(C)(C)c1ccccc1NC(=O)c1cnc2ccccc2n1	-1%	0%
CN1C(=O)COc2c(C(=O)NC3CN4CCC3CC4)cc(Cl)cc21 (stereo not given)	-12%	-20%
Cc1cc(C)cc(NC(=O)CN2C(=O)CSc3ccc(S(=O)(=O)N4CCCC4)cc32)c1	-11%	?
COc1ccccc1-c1nn(CCC(=O)Nc2ccc(F)cc2)c2nc(C)cc(C)c12	116%[activator]	-12%
COc1ccc(-c2cc(C(=O)NCCc3ccccc3)c3cc(C(C)C)ccc3n2)cc1	-3%	22%
O=C1C[C@@H](c2ccccc2)N=C2N(CC3CC3)C/C(=C/c3ccccc3)N12	4%	9%
O=C(CNc1cccc(S(=O)(=O)N2CCOCC2)c1)N1CCN(C(=O)c2cccs2)CC1	2%	14%
O=C(Cn1c(=O)oc2cc(S(=O)(=O)N3CCCCC3)ccc21)NCc1ccc(F)cc1	-15%	15%
O=C(c1cc2ccc3cccnc3c2[nH]1)N1CCCCC1	9%	-83%
O=C1CCC(C(=O)O)CC1	2%	-2%
Cc1ccc2nc(SCC(=O)Nc3ccc4c(c3)OCO4)[nH]c2c1	7%	70%[activator]
COC(=O)CSc1nc2c(c(=O)[nH]c(=O)n2C)n1CCC(C)C	-12%	-7%
CCC(C(=O)c1ccc(Cl)cc1)C(c1ccc(Cl)cc1)C(C(=O)OC)C(=O)OC (stereo not given)	4%	9%
Cc1cnc(NC(=O)CCc2ncc(-c3ccc(CC(C)C)cc3)o2)s1	1%	-17%
C[C@@H]1OC(C2CCCCC2)N(C)[C@H]2C[C@H]3c4[nH]c5cccc(-c6cccc(F)c6)c5c4CCN3C(=O)[C@@H]12 (stereo not given in full)	15%	14%
Cc1nn(S(=O)(=O)c2ccccc2)c(C)c1S(=O)(=O)N1CCC(C)CC1	46%[activator]	-17%
CN1CCN(C(=O)c2cc3cc(Cl)cc(Cl)c3oc2=O)CC1	-3%	-2%
CCC(Sc1nc2ccncc2[nH]1)C(=O)Nc1cc(C)ccc1C (stereo not given)	-15%	-20%
Fc1ccc(-c2noc(CSc3nncc4ccccc34)n2)cc1	6%	67%[activator]
CCCC1NC(=O)N(Cc2ncc(-c3ccc(Cl)cc3)o2)C1=O (stereo not given)	-6%	0%
CC(=O)c1cc2c(cc1N/C(=N/S(=O)(=O)c1ccc(C)cc1)c1ccc(F)cc1)OCO2	83%[activator]	-6%
COc1ccc(-c2cn3nc(SCC(=O)Nc4ccc(C)c(Cl)c4)ccc3n2)cc1	7%	168%[activator]
Cc1ccc(C(=O)COC(=O)C2CC(=O)N(c3cc(C)ccc3C)C2)cc1 (stereo not given)	-9%	-13%
CCOC(=O)c1cccc(NC(=O)c2oc3c(c2C)-c2nn(CC)cc2CC3)c1	-9%	87%[activator]
CCOC(=O)c1cc(-c2ccco2)nc2c1c(C)nn2-c1ccccc1Cl	-20%	-19%
Cc1cc(C)cc(NC(=O)C(Cc2ccccc2)NS(=O)(=O)c2ccc3c(c2)CCC(=O)N3)c1 (stereo not given)	-18%	?
COc1ccc(S(=O)(=O)NCC(c2ccco2)N2CCN(c3ccccc3)CC2)cc1OC (stereo not given)	67%[activator]	0%
CN(CC(=O)NC1CCCCNC1=O)Cc1ccc(F)cc1F (stereo not given)	-8%	15%
COc1ccc(CCNC(=O)CS(=O)Cc2nc(-c3ccc(Cl)cc3)oc2C)cc1OC (stereo not given)	4%	7%
Cc1ccc(Cn2c(C)c(CNCc3ccccc3F)c(C(=O)O)c2C)cc1	10%	-26%
CC(C)c1nnc(N2C(=O)c3oc4ccccc4c(=O)c3C2c2ccccc2F)s1 (stereo not given)	-5%	0%
Cc1ccc(Nc2nn3c(=O)c4cc5c(cc4nc3s2)OCO5)cc1Cl	-7%	-14%
CCCn1c(C2CC(=O)N(c3ccc(CC)cc3)C2)nc2ccccc21 (stereo not given)	42%[activator]	7%
CC(CCc1ccccc1)NCc1ccc(C(=O)O)cc1 (stereo not given)	6%	-12%
Cc1ccc(CNC(=O)Cn2cc(C#N)c3ccccc32)cc1	11%	104%[activator]
COc1ccc(NC(=O)c2cc(S(=O)(=O)N3CCCCC3)c[nH]2)c(OC)c1	5%	-11%

Additional results.
SMILES	2A Renilla	StopGo FLuc
O=C(NCCc1nc2ccccc2n1Cc1ccc(Cl)cc1Cl)c1ccco1	-1%	17%
COc1ccc(Br)cc1/C=C1\CCc2ccccc2C1=O	-19%	-11%
O=C(NC1CCCCC1)C1(c2cccc(F)c2)CCC1	18%	7%
CCOC(=O)c1cnc(NCc2ccc(Cl)cc2)c2ccccc12	-9%	1%
Cc1ccccc1C(=O)OCc1cc(=O)n2nc(C3CCCCC3)sc2n1	9%	9%
Cc1ccc(-c2nc(CS(=O)(=O)CC(=O)NCc3ccccc3C)c(C)o2)cc1	41%[activator]	1%
Cc1cc(C)cc(C(=O)N2CCN(CCc3ccccc3)CC2)c1	-9%	-7%
CC(C)c1ccc2oc(=O)cc(CN3CCN(CCO)CC3)c2c1	-1%	5%
COC(=O)c1ccccc1NS(=O)(=O)c1cc2c(cc1C)N(C)CCO2	-9%	7%
O=C(O)CCNC(=O)c1ccccc1	-2%	-5%
CCOC(=O)c1c(S(=O)(=O)NCC(=O)N(C)c2ccc(C)cc2)c(C)n(C)c1C	32%[activator]	-4%
N=C1C(c2nc3ccccc3[nH]2)=C(O)CN1c1ccc(F)cc1	-3%	117%[activator]
CSc1ccc(CCNC(=O)CCCn2nc(C)c3sc4ccccc4c3c2=O)cc1	-15%	0%
COc1cccc(-c2cc(C(=O)Nc3ccn(Cc4ccc(C)cc4)n3)no2)c1	-2%	0%
O=C(Cn1c(NCc2ccccc2)nc2ccccc21)N1CCCCC1	146%[activator]	8%
O=C(NCCc1ccc(Cl)cc1)c1ccc(CS(=O)(=O)Cc2ccc(Cl)cc2)o1	-6%	45%[activator]
O=C(/C=C/c1ccc(Cl)cc1)c1ccc(N2CCOCC2)cc1	0%	20%
Fc1ccc(CNCCN2CCCC2)cc1F	-2%	-3%
CN(C(=O)Cn1nnc(-c2ccc(S(C)(=O)=O)cc2)n1)c1ccccc1	-1%	-7%
CCc1cccc(C)c1NC(=O)c1nn(CC)c(=O)c2ccccc12	-2%	-6%
CCCCn1c(=O)[nH]c(=O)c2c1nc(-c1ccccn1)n2CCC	8%	15%
Cn1ccc(NC(=O)CCc2nnc(-c3ccccc3)o2)n1	-12%	1%
Cc1ccc(/C=C/c2ccc3cc(C)ccc3n2)cc1	5%	214%[activator]
O=C(O)c1cccc(NC(=S)N/N=C/c2ccc([N+](=O)[O-])cc2)c1	7%	2µM*
CCc1ccc(NC(=O)CSc2nc(=O)n(Cc3ccco3)c3c2CCC3)cc1	29%	-2%
Cc1c(Cl)cccc1NC(=O)CSc1nnc2[nH]c(=O)c(C(C)(C)C)nn12	97%[activator]	2%
COc1ccc(-c2c(C)nc(N)nc2-c2ccc(OCc3ccccc3)cc2O)cc1	-2%	69%[activator]

This is a subset, so the mix of outcomes need not match the whole.
